High-throughput results deposited in PubChem BioAssay by several laboratories.
eIF4H inh: human eIF4H binding inhibitors, primary screen, translation initiation inhibitor project, biochemical, uHTS, fluorescence polarization; 290,000 tested, 0.94% active; inhibition, % at 35 µM; Eukaryotic translation initiation factor 4H (Homo sapiens), Q15056; eIF4H fluorescence polarization binding assay;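 active = 50% or more with normal probe brightness, or confirmed in later tests; about a fifth of its hits are not listed in these tables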;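 also: calls also rest on retests at 20 µM and on dose response follow-up; 0% = protein and probe with vehicle and 100% = probe without protein; strong numbers were not always called active; many hits fall short of the cut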
CSC inhib: cancer stem cell viability inhibitors, primary screen, luminescence | AID 2717, 2010 | 300,000 tested, 1.1% active | inhibition, % at 7.5 µM | cancer stem cell-like cells viability;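 active = mean at 75% or more and at least half the replicates too; tested in HMLE shEcad cells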;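 also: 0% = median of negative and 100% = median of positive control wells; the first replicate is given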
UUG fidelity: modulators of yeast start codon fidelity, primary screen, whole organism, S. cerevisiae, single point, plate reader; S. cerevisiae UUG-firefly luciferase reporter, luminescence/redox ratio; activity score, % at 18.7 µM; 350,000 tested, 0.13% active; AID 602363, 2012;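 active = replicate mean at a twofold rise or more, about +100% in these data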;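 also: firefly luciferase made from a UUG start codon reports start codon fidelity; reporter light over untreated wells divided by growth signal over untreated wells; some hits fall short of that in this replicate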
PABP FP inh: PABP poly(A) RNA binding inhibitors, primary screen, biochemical, fluorescence polarization, uHTS; Polyadenylate-binding protein 1 (Homo sapiens), P11940; 290,000 tested, 1% active; inhibition, % at 35 µM;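 active = 50% or more with normal probe brightness, or confirmed in later tests; about a fifth of its hits are not listed in these tables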;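 also: calls also rest on retests at 20 µM and on dose response follow-up; controls were probe without protein and protein plus probe with vehicle; some compounds called inactive have numbers as strong as hits; many hits fall short of the cut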
Target sequence (P11940 whole entry, looked up): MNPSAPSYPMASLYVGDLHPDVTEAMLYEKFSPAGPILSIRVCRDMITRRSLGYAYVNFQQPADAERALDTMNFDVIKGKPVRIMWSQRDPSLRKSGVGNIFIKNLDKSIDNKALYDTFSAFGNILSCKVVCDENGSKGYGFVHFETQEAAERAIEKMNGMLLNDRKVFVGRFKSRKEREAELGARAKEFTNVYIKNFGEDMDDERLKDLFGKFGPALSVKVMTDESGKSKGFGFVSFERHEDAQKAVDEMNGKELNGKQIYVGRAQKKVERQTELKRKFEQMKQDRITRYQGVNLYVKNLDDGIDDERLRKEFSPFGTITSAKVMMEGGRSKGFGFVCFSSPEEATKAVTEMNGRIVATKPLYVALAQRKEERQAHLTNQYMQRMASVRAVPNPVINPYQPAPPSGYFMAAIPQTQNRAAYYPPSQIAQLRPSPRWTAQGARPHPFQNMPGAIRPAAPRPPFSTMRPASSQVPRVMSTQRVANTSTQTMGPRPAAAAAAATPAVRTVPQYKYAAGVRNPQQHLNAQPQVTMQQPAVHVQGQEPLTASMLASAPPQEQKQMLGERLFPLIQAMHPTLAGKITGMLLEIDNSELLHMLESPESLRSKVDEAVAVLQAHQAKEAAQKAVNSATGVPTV
Env fusion inh: inhibitors of HIV-1 Env-driven cell-cell fusion, primary screen, HeLa-JRFL effector, CEM21 target cells, luciferase; 360,000 tested, 1.1% active; AID 651610, 2012; inhibition, % at 12.3 µM;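 active = mean replicate inhibition score of at least 50 and every replicate individually at or above 50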;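 also: 0% = plate neutral controls and 100% = maraviroc near 300 nM; one replicate is shown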
Rce1 inhib: yeast Rce1p protease inhibitors, primary screen, biochemical, fluorescence, cell-free homogeneous. calls only. CAAX prenyl protease 2 (Saccharomyces cerevisiae (strain ATCC 204508 / S288c)), Q03530. 290,000 tested, 0.27% active. yeast membranes, quenched prenylated peptide cleavage fluorescence;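 active = fall in fluorescence gain of 50% or more versus controls, with final raw signal at or below 3038400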;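 also: plate controls were neutral control wells for no effect and wells lacking membranes for full effect; tested at 10 µM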
MT1-MMP act inh: blockers of MT1-MMP proenzyme processing, primary screen, HT1080 RFP-PRO-GFP cells, GFP/RFP fluorescence. Matrix metalloproteinase-14 (Homo sapiens), P50281. GFP/RFP ratio fluorescence, overnight; percent of plate control window, DMSO zero. GFP/RFP ratio change, % at 20 µM. 360,000 tested, 0.061% active. AID 651647, 2012;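 active = GFP/RFP ratio change of at least 30% with cell ATP level not reduced by more than half and red fluorescence within 50% of control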; also: strong numbers were not always called active
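Assay system: HT1080 RFP-PRO-GFP cells. Benchmarks: DMSO vehicle wells and RFP-L50D-GFP reporter cell wells. Times: overnight cell settling, then overnight compound exposure, 37 °C, 5% CO2. Compound: 20 µM single dose, 1% DMSO. Read-out basis: GFP/RFP fluorescence ratio.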
MT1-MMP act inh RFP: second read-out of MT1-MMP act inh, no call of its own (marks repeat the call); RFP signal change, %; measured here: RFP expression control read;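 0 = vehicle wells; hits needed this value within 50% of zero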
Numbers without * were called inactive; i = inactive; nt = no result given.

Keys – A = eIF4H inh; B = CSC inhib; C = UUG fidelity; D = PABP FP inh; E = Env fusion inh; F = Rce1 inhib; G = MT1-MMP act inh; H = MT1-MMP act inh RFP
smiles: CSc1ccccc1-c1nc(-c2ccncc2)no1
  A = 0.0	B = -8.5	C = -21.0	D = 5.1	E = -207.1	F = i	G = -8.5	H = -12.1

smiles: Cc1cccc(CCNC(=O)c2cccc3c2C(=O)N(C2CCCCC2)C3)c1
  A = 15.9	B = -4.6	C = 6.3	D = 1.9	E = 19.2	F = i	G = -5.1	H = -8.2

smiles: CCOc1ccc2oc(C(=O)Nc3cc(C)ccn3)c(C)c2c1
  A = nt	B = 26.7	C = -31.4	D = nt	E = -305.9	F = i	G = -6.3	H = -4.0

smiles: CCN(CC)C(=O)[C@H]1C[C@H](CC(=O)NCCN2CCOCC2)C(=O)N2CCc3c([nH]c4cc(-c5ccco5)ccc34)[C@]12C
  A = nt	B = nt	C = 8.7	D = nt	E = -1.9	F = nt	G = 3.0	H = 3.4

smiles: c1ccc(CSc2nnc3ccc(-c4cccs4)nn23)nc1
  A = -11.8	B = -8.5	C = nt	D = -1.0	E = -5.7	F = i	G = -1.8	H = 2.3

smiles: CCN1CCN(c2ccc(NC(=O)CCc3c(C)nc4c(-c5ccc(F)cc5)c(C)nn4c3C)cc2)CC1
  A = -6.3	B = 81.0*	C = nt	D = 18.3	E = -0.2	F = i	G = -2.8	H = -5.8

smiles: CC(=O)N1CCN(S(=O)(=O)c2cccc(C(=O)Nc3cc(C(F)(F)F)ccc3N3CCOCC3)c2)CC1
  A = -15.2	B = -3.6	C = 2.1	D = 11.0	E = nt	F = i	G = 0.3	H = 4.5

smiles: Cc1cccc(OCCC(=O)Nc2ccc(F)c(Cl)c2)c1
  A = -5.8	B = 9.2	C = nt	D = -7.2	E = 7.4	F = i	G = -5.9	H = -0.4

smiles: Cc1ccccc1OCC(=O)N1N=C(c2cccnc2)CC1(O)C(F)(F)F (stereo unspecified)
  A = -15.1	B = -2.5	C = -4.0	D = -2.1	E = -2.0	F = i	G = 4.6	H = 4.1

smiles: O=C(O)c1cccnc1Nc1ccc(Cl)cc1
  A = -1.2	B = 4.2	C = nt	D = 6.7	E = -18.5	F = i	G = -2.8	H = -1.1

smiles: CCN1C(=O)[C@H]2[C@@H](c3ccc(C)cc3)N3C(=O)N(c4cccc(F)c4)C(=O)[C@@]3(C)[C@H]2C1=O
  A = -4.8	B = -17.5	C = -4.5	D = -0.6	E = 11.2	F = i	G = -2.0	H = -2.2

smiles: CCOC(=O)C1=C[C@@H](C(C)(C)C)N(S(=O)(=O)c2ccc(C)cc2)[C@H]1c1cccc(Cl)c1
  A = nt	B = nt	C = -18.7	D = nt	E = 33.0	F = nt	G = -11.4	H = -31.2

smiles: c1csc(CNc2nc(Oc3ccncc3)c3sccc3n2)c1
  A = nt	B = nt	C = -5.3	D = nt	E = -19.7	F = nt	G = 8.9	H = 7.4

smiles: COc1c(C)cc(C(O)c2ncc(-c3cccc4ccccc34)[nH]2)cc1C (stereo unspecified)
  A = nt	B = nt	C = -9.0	D = nt	E = -21.1	F = nt	G = -5.3	H = -9.0

smiles: COc1ccc(-c2csc(NC(=O)CC(NC(C)=O)c3ccccc3)n2)cc1OC (stereo unspecified)
  A = 2.8	B = 1.9	C = -3.4	D = 16.1	E = 10.8	F = i	G = 1.8	H = -3.2

Reformatted with values under each structure: entries from further up.
The line under a structure holds: eIF4H inh, CSC inhib, UUG fidelity, PABP FP inh, Env fusion inh, Rce1 inhib, MT1-MMP act inh, MT1-MMP act inh RFP
> O=C(O)c1cccnc1Nc1ccc(Cl)cc1
→ -1.2, 4.2, nt, 6.7, -18.5, i, -2.8, -1.1
> CC(=O)N1CCN(S(=O)(=O)c2cccc(C(=O)Nc3cc(C(F)(F)F)ccc3N3CCOCC3)c2)CC1
→ -15.2, -3.6, 2.1, 11.0, nt, i, 0.3, 4.5
> c1ccc(CSc2nnc3ccc(-c4cccs4)nn23)nc1
→ -11.8, -8.5, nt, -1.0, -5.7, i, -1.8, 2.3
> CCN1C(=O)[C@H]2[C@@H](c3ccc(C)cc3)N3C(=O)N(c4cccc(F)c4)C(=O)[C@@]3(C)[C@H]2C1=O
→ -4.8, -17.5, -4.5, -0.6, 11.2, i, -2.0, -2.2
> Cc1ccccc1OCC(=O)N1N=C(c2cccnc2)CC1(O)C(F)(F)F (stereo unspecified)
→ -15.1, -2.5, -4.0, -2.1, -2.0, i, 4.6, 4.1
> Cc1cccc(OCCC(=O)Nc2ccc(F)c(Cl)c2)c1
→ -5.8, 9.2, nt, -7.2, 7.4, i, -5.9, -0.4

More structures.
Keys – A = eIF4H inh; B = CSC inhib; C = UUG fidelity; D = PABP FP inh; E = Env fusion inh; F = Rce1 inhib; G = MT1-MMP act inh; H = MT1-MMP act inh RFP
smiles: O=C(COc1coc(CN2CCN(c3ccccc3)CC2)cc1=O)NCC1CCCO1 (stereo unspecified)
  A = nt	B = -4.9	C = 3.3	D = nt	E = 1.7	F = i	G = 0.3	H = 1.4

smiles: CN(C)CCOC(C1CCCCC1)C1CCCCC1
  A = 10.5	B = -3.5	C = -10.7	D = 6.4	E = nt	F = i	G = -13.2	H = -2.5

smiles: N#CCCN(C(=O)COC(=O)c1ccc2ccccc2n1)c1ccccc1
  A = nt	B = -7.4	C = -10.6	D = nt	E = nt	F = nt	G = -2.2	H = 2.0

smiles: Cc1nc(N)c(C#N)c(-c2cccnc2)c1-c1ccccc1
  A = 7.3	B = -2.7	C = -6.7	D = -0.5	E = 14.7	F = i	G = -8.9	H = -13.5

smiles: Cc1ccc(S(=O)(=O)CCc2nc3ccccc3s2)cc1C
  A = -5.0	B = -3.2	C = 1.6	D = -6.4	E = nt	F = i	G = 5.1	H = 7.1

smiles: COc1ccc(S(=O)(=O)N2CCCCCC2)cc1NC(=O)CCNC(=O)c1ccc(Cl)cc1
  A = nt	B = nt	C = -10.2	D = nt	E = -2.8	F = nt	G = 0.3	H = -1.3

smiles: CCC(=O)N1CCc2cc(Br)cc(S(=O)(=O)NCCCN(C)Cc3ccccc3)c21
  A = 10.1	B = -1.2	C = -13.3	D = 1.0	E = 24.6	F = i	G = 0.8	H = -2.9

smiles: O=C(CNC(=O)C1CCCCC1)OC(C(=O)c1ccccc1)c1ccccc1 (stereo unspecified)
  A = nt	B = 2.8	C = 8.6	D = nt	E = 14.2	F = nt	G = 4.6	H = 1.2

smiles: Cc1ccccc1OCC(=O)Nc1cccc(N(C)S(C)(=O)=O)c1
  A = 3.7	B = 7.3	C = -12.9	D = 5.5	E = nt	F = i	G = 2.3	H = 0.5

smiles: Brc1cc2c(cc1CN1CCc3ccccc3C1)OCO2
  A = -6.3	B = 4.5	C = -30.1	D = 2.8	E = -0.3	F = i	G = 1.7	H = 6.2

smiles: CCOC(=O)Cc1csc(NC(=O)CSc2nnnn2-c2ccc(F)cc2)n1
  A = 2.4	B = -4.0	C = nt	D = 1.5	E = nt	F = i	G = 1.8	H = 4.8

smiles: Cc1c(C)n(C)c2ccc([N+](=O)[O-])cc12
  A = -5.9	B = nt	C = -23.6	D = 10.2	E = i	F = i	G = 4.6	H = -1.1

smiles: CCN1C[C@@H]2[C@@H]3C(=O)N(Cc4ccccc4)C(=O)[C@@H]3[C@](C)(C1=O)N2C(=O)c1ccccc1
  A = nt	B = nt	C = -12.6	D = nt	E = -0.8	F = nt	G = 0.1	H = 4.2

smiles: CCOc1cccc(CN2CCCC(C(=O)Nc3cccc(-n4cccn4)c3)C2)c1 (stereo unspecified)
  A = -10.4	B = 6.7	C = -14.6	D = -8.6	E = nt	F = i	G = -1.4	H = -2.7

smiles: CCOC(=O)c1ccccc1NC(=O)CSc1nnnn1C
  A = 3.6	B = -7.7	C = -11.3	D = 5.2	E = nt	F = i	G = -1.0	H = 0.9

smiles: COc1cccc(C(Nc2ccccn2)c2c(NC(=O)c3ccco3)sc(C)c2C)c1 (stereo unspecified)
  A = -1.0	B = 18.8	C = 2.2	D = -7.4	E = -107.2	F = i	G = -8.4	H = -8.0

smiles: COc1ccccc1N1CCN(Cc2cc(=O)oc3cc(C)ccc23)CC1
  A = nt	B = nt	C = -4.5	D = nt	E = 11.6	F = nt	G = 0.2	H = -3.8

smiles: CC(=O)c1n[nH]nc1Nc1nc(C)cc(C)n1
  A = 1.5	B = -9.8	C = -17.5	D = -1.6	E = -2.8	F = i	G = 5.1	H = 3.9

smiles: O=C(NC1CC1)C1=C[C@@H](C2CC2)C[C@@H](OCc2ccc(CO)cc2)O1
  A = -7.5	B = -11.2	C = -9.1	D = -5.2	E = 6.5	F = i	G = nt	H = nt

smiles: CCc1cc[n+](/C(C(=S)Nc2cccc(C)c2)=C(/[O-])c2ccc(C)c([N+](=O)[O-])c2)cc1
  A = -5.8	B = -2.5	C = nt	D = -12.5	E = -3.9	F = i	G = -3.9	H = -1.4
